HIV TAR-Tat = HIV-1 TAR-Tat binding disruption | HIV-1 TAR RNA, Tat peptide displacement FRET; hits give high values | z-score (no concentration beside the values) | 100,000 compounds, 0.6% hits | AID 1259389;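 also: score is relative to mean and SD of negative controls; some compounds called inactive have numbers as strong as hits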
CDC25B-CDK2 inh = human CDC25B-CDK2/CyclinA binding inhibition | P30305+P24941 | HTRF CDC25B-CDK2/CyclinA binding, anti-His/anti-Flag; hits give high values | AID 1259370 | 94,000 compounds, 0.72% hits | z-score (test concentration not listed);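 also: score is relative to mean and SD of negative controls; strong numbers were not always called active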
* marks the source's active call; other numbers are inactive results; . = not tested or not shown.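 The calls were made as follows: active = z-score from 3 up in half or more of its runs; inactive = the rest.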

Under each structure – HIV TAR-Tat, CDC25B-CDK2 inh
CN(C)c1ccc(C2CC(c3ccc(Br)cc3)=NN2C(=O)CCC(=O)O)cc1 (configuration not stated)
    ., -0.25
CC1CN(c2nc3ccccc3nc2SCC(=O)NCC2CCCO2)CC(C)O1 (configuration not stated)
    -0.05, 1.2
CCc1ccc2oc3nc(N)c(C#N)cc3c(=O)c2c1
    ., -0.38
Cc1ccccc1-c1noc(CSc2nnc(-c3ccc(Cl)cc3)n2C)n1
    -0.34, -0.08
CCCCNC(=O)C1=CC(c2ccc3c(c2)OCO3)=NS(=O)(=O)N1C
    2.5, -1.6
CN(C)c1ncnc2c1c(-c1ccccc1)cn2-c1ccccc1Cl
    0.54, -2.1
Cc1nc(Nc2ccc(F)cc2)nc2c1C(=O)CC(C)C2 (configuration not stated)
    -1.3, -0.74
O=C(NCCCN1CCc2ccccc2C1)C1CCCN(c2nc3cccnc3s2)C1 (configuration not stated)
    -0.96, .
O=S(=O)(Cc1noc(-c2ccno2)n1)c1ccsc1
    ., -0.76
Cc1ccc(NS(=O)(=O)c2ccc3[nH]c4c(c3c2)CCCC4)cc1C
    0.15, .
CCOC(=O)C1=C(O)CSC1=Nc1ccc(F)cc1
    0.98, 0.22
COc1ccc(N2C(=O)N(c3cc(C)cc(C)c3)C3CS(=O)(=O)CC32)cc1 (configuration not stated)
    -0.69, -3.2
C=Cc1ccc(CSc2nc3ncccc3[nH]2)cc1
    -0.87, .
Cc1cc(C)n(CCc2nc3c4ccccc4n(CC(=O)c4ccc(Cl)cc4)c(=O)n3n2)n1
    2.4, -1
Nc1nc2c(c(=O)[nH]1)C(c1ccc(OCc3ccc(F)cc3)cc1)CC(=O)N2 (configuration not stated)
    0.8, 0.98
CCOc1cc(C)c(C(C)C)cc1S(=O)(=O)n1ccnc1CC
    0.44, 0.68
Cn1ncc(NCCc2ccncc2)c(Cl)c1=O
    ., -1.9
COc1ccccc1C(=O)OC1=CN(C(=O)c2ccccc2OC)S(=O)(=O)c2ccccc21
    -0.78, -1.2
Cn1c(=O)n(CC(=O)O)c2ccccc21
    -0.36, -0.8
O=C(CCc1nc(CS(=O)(=O)c2ccccc2)no1)NC1CCCCC1
    0.14, .

(next part)
Under each structure – HIV TAR-Tat, CDC25B-CDK2 inh
COc1ccccc1C1CCN(Cc2cn[nH]c2-c2ccc(F)cc2)CC1
    ., -0.24
O=C(CN1C(=O)CSc2ccc(S(=O)(=O)N3CCOCC3)cc21)N1CCOCC1
    1, .
Nc1nnc(SCc2cc(=O)n3c4c(sc3n2)CCCC4)s1
    2.9, -1.6
Cn1c(O)c(C2=Nc3ccccc3SC(c3ccc4c(c3)OCO4)C2)c(=O)[nH]c1=O (configuration not stated)
    1.4, -0.84
Nc1[nH]c(=S)nc2sc3c(c12)CCCC3
    ., -0.46
Clc1ccnnc1N1CCCC2CCCCC21 (configuration not stated)
    1.2, -1.2
Clc1ccccc1Cc1nnc(-c2cccs2)o1
    -0.19, -1.2
Cc1noc(C)c1-c1nc(-c2ccc(C(F)(F)F)cn2)no1
    ., -2
CCCCN1C(=O)C(NC(C)=O)c2cc(Br)ccc21 (configuration not stated)
    1, -0.53
CCOC(=O)c1c(NS(=O)(=O)c2ccc(OC)c(OC)c2)sc2c1CCC2
    -1.8, -2.2
COc1cc(Nc2nc3ccccc3n3c(C)nnc23)cc(OC)c1
    0.12, -1.7
COc1ccc(-n2nnc(-c3nc(-c4ccccc4F)no3)c2N)cc1Cl
    0.15, .
O=C(NCCCN1CCN(C2CCCCC2)CC1)C1CCCN(S(=O)(=O)N2CCCCC2)C1 (configuration not stated)
    0.14, .
Cc1cc(Nc2ccccc2C)n2nc(Cc3ccccc3)nc2n1
    1.2, 1.2
O=C1CCCC2=C1C(c1ccc(F)cc1)NC(=S)N2 (configuration not stated)
    ., -0.17
Cc1nc(Oc2cccc(F)c2)c2oc3ccccc3c2n1
    -0.47, .
Cc1nc2ncnn2c(C)c1CCC(=O)N1CC(C)CC(C)C1 (configuration not stated)
    ., -0.29
CC(=O)OCC1=C(C(=O)O)N2C(=O)C(NC(=O)c3cccc(F)c3)C2SC1 (configuration not stated)
    2.3, -2.1
CC(=O)Nc1ccc(S(=O)(=O)[C@H]2CS(=O)(=O)C[C@@H]2N2CCC(C)CC2)cc1
    0.27, -2.5
COc1cc2nc(Nc3ccc(F)cc3)nc(N)c2cc1OC
    1.6, 13*

Random excerpt: 5 entries already listed, in no set order.
Under each structure – HIV TAR-Tat, CDC25B-CDK2 inh
CCOC(=O)c1c(NS(=O)(=O)c2ccc(OC)c(OC)c2)sc2c1CCC2
    -1.8, -2.2
Clc1ccccc1Cc1nnc(-c2cccs2)o1
    -0.19, -1.2
Nc1[nH]c(=S)nc2sc3c(c12)CCCC3
    ., -0.46
COc1ccccc1C1CCN(Cc2cn[nH]c2-c2ccc(F)cc2)CC1
    ., -0.24
Clc1ccnnc1N1CCCC2CCCCC21 (configuration not stated)
    1.2, -1.2

(further entries)
Under each structure – HIV TAR-Tat, CDC25B-CDK2 inh
CC1=C(C(=O)NC2CCCCC2)C2(CCCCC2)OC1=O
    -0.57, 0.54
S=c1[nH]cc(-c2ccc(Cl)cc2)o1
    1, -1.7
Cc1nc2nc(C)c(CCC(=O)Nc3ccc(Br)c(C)c3)c(C)n2n1
    ., -0.27
COc1ccc(OC)c(NS(=O)(=O)c2cc(-c3onc(C)c3C)ccc2OC)c1
    0.39, .
CC1(C)Oc2ccc3ccc(=O)oc3c2-c2cn[nH]c21
    ., 0.03
COc1ccc2nc(NC(=O)CN3CCCCC3)sc2c1
    ., -1.5
Nc1nc(Nc2cccc(F)c2)sc1C(=O)c1ccc(F)cc1
    0.61, -0.32
CSc1cccc(NC(=O)CN2C(=O)c3ccccc3Sc3ncccc32)c1
    2.7, .
Nc1nc2nc(-c3ccco3)cc(C(F)(F)F)n2n1
    -2.3, -1.5
OC(c1ccccc1)(c1ccc(Br)cc1)C(CN1CCOCC1)c1ccccc1 (configuration not stated)
    1.5, 0.09
O=c1c2ccccc2nc(SCc2ccc(F)cc2)n1CC1CCCO1 (configuration not stated)
    1.4, .
NC1=NC2(CCCCC2)N(c2ccccc2Cl)C(N)=N1
    ., -0.29
CC1Cc2cc(S(=O)(=O)N3CCC(C(=O)Nc4ccc(F)cc4)CC3)ccc2N1C(=O)C1CCC1 (configuration not stated)
    0.5, .
CCCCCC(=O)Cc1cc(O)cc(O)c1C(=O)Oc1cc(CC(=O)CCCCC)c(C(=O)O)c(OC)c1
    1.2, .
COc1ccc(-c2nc3scc(CCNS(=O)(=O)c4cc(F)ccc4F)n3n2)cc1
    2.1, .
CCCN1C(=O)C(O)(CC(=O)c2ccco2)c2ccccc21 (configuration not stated)
    1, 0.23
CCc1cc2c(NCCCN3CCN(C4CCCCC4)CC3)ncnc2s1
    0.74, .
Cc1ccc2cc(NC(=O)c3cnc4ccccc4n3)ccc2n1
    ., -1.3
O=S(=O)(Nc1cccc(N2CCCS2(=O)=O)c1)c1ccc(Cl)cc1
    0.16, .
C=CCNC(=O)c1ccc2c(=O)[nH]c3c(C(=O)NC4CCCC4)sc(=S)n3c2c1
    11, .

(listing goes on)
Under each structure – HIV TAR-Tat, CDC25B-CDK2 inh
CSc1nc2sc3c(c2c2nnc(C)n12)CC(C)(C)OC3
    0.05, -0.55
NC1=NC(c2ccc(O)cc2)n2c(nc3ccccc32)N1 (configuration not stated)
    0.33, -2.2
COC(=O)c1ccc(-n2nnc3c(sc4nc(C)cc(C)c43)c2=O)cc1
    0.73, 1.8
Cc1cc(NCC2CCCO2)n2nc(C(F)(F)F)c(-c3ccc(F)cc3)c2n1 (configuration not stated)
    -1.3, -0.8
CN1CCN(NC(=O)NC23CC4CC(CC(C4)C2)C3)CC1
    ., -2.7
CC(C)(C)c1ccc(C(=O)CC(N)=O)cc1
    ., -1.4
Cc1ccc(-c2n[nH]c3c2C(c2ccc(C(C)(C)C)cc2)NC3=O)cc1 (configuration not stated)
    0.86, .
Cc1cc(OC(=O)c2c(-c3ccccc3)noc2C)c2cc(F)ccc2n1
    ., -2.3
CC(=O)NC1=NN(C(C)=O)C(c2ccc(OCCOc3ccc(C)c(C)c3)c(Cl)c2)S1 (configuration not stated)
    2.1, 0.95
O=C(O)c1cc(-c2c[nH]c3ccccc23)nc2cc3ccccc3cc12
    ., -2.3
Cc1cc(C)c2c(=O)cc(C(=O)Nc3sc4c(c3C(=O)NCC3CCCO3)CCC4)oc2c1 (configuration not stated)
    -8.6, -1.5
Cc1cc(-c2ccc(S(=O)(=O)Nc3ccccc3C)s2)n[nH]1
    -0.97, .
Cn1ncc2c(NCc3ccccc3)nc(N3CCC(N4CCCCC4)CC3)nc21
    3, .
CSc1ccc(-c2ncnn2-c2cccc(Cl)c2)cc1
    0.24, -2
CCOC(=O)C(=CNc1ccn(C)n1)C(=O)OCC
    ., 0.15
CCOC(=O)c1sc(NC(=O)C(C)(C)C)c(C(=O)OCC)c1C
    0.02, 0.39
CCN1CCN(c2sc(S(=O)(=O)CC)nc2S(=O)(=O)c2ccc(Cl)cc2)CC1
    1.3, -2.2
Cn1c(SCC(=O)N2CCCC2)ncc(C(=O)Nc2ccccc2)c1=O
    1.5, .
COc1ccc(OC)c(S(=O)(=O)Nc2cc3c(cc2N2CCOCC2)n(C)c(=O)n3C)c1
    -1.6, -2.4
COc1ccc(C2=C(C)C(=NC(C)c3ccccc3)NS2(=O)=O)cc1 (configuration not stated)
    -1.1, -0.12

(continued)
Under each structure – HIV TAR-Tat, CDC25B-CDK2 inh
CCc1cc2c3c([nH]c2cc1S(=O)(=O)Nc1cccc(SC)c1)CCCC3=O
    0.47, .
COC(=O)CCN1CCc2cc(N=Nc3ccc(C(F)(F)F)cc3)ccc21
    ., -0.53
Cc1nn(-c2ccccc2)c2c1C(=O)C(Br)C(C)(C)C2 (configuration not stated)
    -1.3, -0.95
CC(C)COC(=O)Nc1nn2c(-c3ccccc3)nnc2s1
    0.85, -1.8
CN(CC(=O)N1CCNc2ccccc2C1)S(=O)(=O)c1cccs1
    0.81, -2.4
Cc1ccc(-c2coc(-c3cccc(N)c3)n2)cc1
    1.3, .
CCN(CC)C(=S)SCC(=O)Nc1ccc2nc(SCC(=O)Nc3ccccc3)sc2c1
    ., -3.4
Cc1ccc(N2CC(O)=C(c3nc4ccccc4[nH]3)C2=N)cc1Cl
    0.54, 3.4
Cc1ccc(-n2ncc3c2ncn2nc(-c4ccccc4)nc32)cc1
    0.76, -0.75
CN1CCN(C(=O)c2ccc3c(c2)NC(=O)C2CCCCN32)CC1 (configuration not stated)
    -0.91, .
O=C(NNC(=O)c1ccc2nonc2c1)Nc1ccc(Cl)cc1
    ., -0.43
O=c1c(NCc2ccco2)c(-c2ccc3c(c2)CCCC3)c1=O
    1.8, .
COc1ccc(COC(=O)C2=C(C)NC3=C(C(=O)CCC3)C2c2ccc(O)c(OC)c2)cc1 (configuration not stated)
    0.24, -1.7
O=C(Nc1ccccc1)N1CCC(n2c(C3CCCC3)nc3cccnc32)CC1
    1.8, .
CCOC(=O)CCn1nnc(N)n1
    ., -1.7
Cn1nnc(NCc2ccc(Cl)cc2)n1
    0.46, .
O=c1[nH]cnc2c1c(-c1ccccc1)cn2-c1cccc(C(F)(F)F)c1
    ., -0.38
CC(C)c1nc2sc3c(ncn4ncnc34)c2c2c1CCCC2
    -1.8, -1.3
O=C(c1noc2c1CCCC2)N1CCN(c2cccc(Cl)c2)CC1
    1.3, .
O=C(NCCO)c1cc2ccccc2oc1=O
    ., -2.6

Entries above with a tert-butyl group, in the order listed:
Under each structure – HIV TAR-Tat, CDC25B-CDK2 inh
CC(C)(C)c1ccc(C(=O)CC(N)=O)cc1
    ., -1.4
Cc1ccc(-c2n[nH]c3c2C(c2ccc(C(C)(C)C)cc2)NC3=O)cc1 (configuration not stated)
    0.86, .
CCOC(=O)c1sc(NC(=O)C(C)(C)C)c(C(=O)OCC)c1C
    0.02, 0.39

Full records, quoted from the list. Order of screens: HIV TAR-Tat, CDC25B-CDK2 inh
CC(C)COC(=O)Nc1nn2c(-c3ccccc3)nnc2s1 reads 0.85, -1.8
CCOC(=O)CCn1nnc(N)n1 reads ., -1.7

Remaining list, next part.
Under each structure – HIV TAR-Tat, CDC25B-CDK2 inh
CC1CCN(c2ccc(NS(=O)(=O)c3ccc4c(c3)NC(=O)C(C)CS4)cc2)CC1 (configuration not stated)
    2, .
COc1ccc(N(Cc2cc3cc(OC)ccc3[nH]c2=O)S(C)(=O)=O)cc1
    0.71, -1.4
ON/C=N/c1nnc(C(F)(F)F)s1
    ., -0.22
COc1ccc(NCc2cccn2-c2nnc(N3CCN(c4ccccc4)CC3)s2)c(OC)c1
    -0.43, .
O=C(c1ccccc1)c1cnc2ccccn2c1=O
    ., -1.8
Cc1cc(C)cc(OCC(O)Cn2cnc3ccccc32)c1 (configuration not stated)
    -0.06, -0.48
CCCCN(C)C(=O)C(Cc1ccccc1)NS(=O)(=O)c1ccc2c(c1)CCC(=O)N2 (configuration not stated)
    ., -1.1
CCOc1ccc(N(CC)C2=NC3CS(=O)(=O)CC3S2)cc1 (configuration not stated)
    1.2, -1.3
CCN1c2ccccc2-c2nc3ccccc3n2C1c1ccsc1 (configuration not stated)
    1.9, -1.3
COC(=O)c1cccc(NC2=NS(=O)(=O)c3ccccc32)c1
    1.9, 1.7
O=C(Nc1ccccc1)Nc1ccc(Oc2cccc(C(F)(F)F)c2)nc1
    ., -0.35
Cn1ncc2c(NCc3ccc(F)cc3)nc(N3CCOCC3)nc21
    0.8, .
O=C(NC1CCCC1)C1CCCN(S(=O)(=O)c2ccc3[nH]c(=O)ccc3c2)C1 (configuration not stated)
    -0.73, .
